NPYLR7 agonist – activates Aedes aegypti NPYLR7 receptor. activation, % at 10 µM. AID 1259423. HEK293T NPYLR7/Galpha15, GCaMP6s calcium fluorescence. hit rate 0.15% among 270,000; in the data active means activation above about 40%;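 further: 0% = vehicle and 100% = reference agonist at the receptor; some compounds past the cut are filed as inactive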
NPYLR7 agonist max-min – second read-out of NPYLR7 agonist, no call of its own (marks repeat the call); activation, %; measured here: Max-Min RFU normalised activation; some inactives read as strong as hits;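 span of the calcium signal over five minutes; 0% = vehicle and 100% = native peptide agonist; compound fluorescence can raise it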
An asterisk follows results filed as active; & = joins results of further samples. These rows are one share of the data. The share of hits here may be higher or lower than overall.

SMILES,NPYLR7 agonist,NPYLR7 agonist max-min
C=CCn1c(SC(C)C(=O)NCC2CCCO2)nc2scc(C3CC3)c2c1=O (stereo not given),-3,-4
O=C(NCCn1nc(-c2ccc(Cl)cc2)ccc1=O)c1ccc(Cl)cc1,6,4
Cc1ccccc1OCC1c2ccsc2CCN1C(=O)CN(C(=O)c1ccc(F)cc1)C(C)C (stereo not given),-3,-2
CCCCc1ccc(C(=O)N2CC(C(N)=O)Oc3ccccc32)cc1 (stereo not given),22,24
CCOC(=O)c1nn(-c2ccc(F)cc2)c(=O)c2c(NC(=O)Cc3ccccc3)scc12,8,4
CCCNC(=O)c1cc(NC(=O)Nc2ccccc2OCC)ccc1N1CCCC1,-5,2
COc1ccc(C2C3C(=O)CC(c4ccccc4)CC3=Nc3ccccc3N2C(=O)C(C)C)cc1OC (stereo not given),-6,-12
Cc1ccccc1-n1cc(C(=O)NC2CCN(CC(F)F)CC2)cn1,-5&-7,-5&-7
O=c1cc(CSc2cccc[n+]2[O-])c2c(ccc3ccccc32)o1,1,7
O=C(CSCc1nc2ccsc2c(=O)[nH]1)N1CCc2ccccc21,6,5
O=C(Nc1ccccc1Cc1ccccc1)C1CCCO1 (stereo not given),4,1
Cc1ccc(S(=O)(=O)C(CNC(=O)Oc2ccccc2)c2cccs2)cc1 (stereo not given),-3,-6
CC(C)n1c(=S)[nH]c2scc(-c3cccs3)c2c1=O,-1,1
CN1CCN(S(=O)(=O)c2cc(C(=O)O)cc(-c3ccccc3CO)c2)CC1,3,-1
O=C(CN1CCCC(C(F)(F)F)C1)Nc1ccccc1C(=O)c1ccccc1 (stereo not given),3,1
COc1ccc(-n2cccn2)c(CN2CCCC(C(=O)N3CCCC3)C2)c1 (stereo not given),6,4
Cc1ccc(-c2cc3c(=O)n(CC(=O)NCCc4ccccc4)ccn3n2)cc1,2,1
COc1cccc(COC2CCCN(C(=O)Cc3ccccc3)C2)c1 (stereo not given),-3,2
COc1ccc(CCOc2nc(-c3ccc(Cl)c(Cl)c3)n(-c3ccc(N)cc3)n2)cc1,-6,-10
CCc1nc2ccc(C(=O)NCCN3CCOCC3)cn2c1N(CC)Cc1cccc(Br)c1,17,13
COc1ccc2c(c1)CCc1cc(CCC(=O)NCCc3cccs3)n(CCc3cccc(F)c3)c1-2,0,-4
Cc1ccccc1Cn1c(C(=O)N2CCN(C(=O)NCc3ccccc3)C(C)C2)cc2ccsc21 (stereo not given),-3,-1
CC(=O)N(C)C1CCN(C2CCC3(CCNCC3)CC2)C1 (stereo not given),-2&3,6&1
CC(=O)Nc1ccc(OC(C)C(=O)Nc2cccc(C(C)=O)c2)cc1 (stereo not given),3,-2
CCOC(=O)C1CCc2sc(NC(=O)C3CCCN(Cc4nc(-c5cccnc5)no4)C3)nc21 (stereo not given),-1,-3
CCCCNC(=O)c1cn(C2CCCCC2)cc(C(=O)NCCc2ccncc2)c1=O,16,14
O=C(CCn1cc(Cl)cn1)N1CC[C@@H](c2ccc3c(c2)OCO3)[C@H](O)C1,17,3
COC(=O)c1ccccc1NC(=O)CSc1nnc(-c2cccc(F)c2)n1-c1ccccc1,2,11
Cc1ccc(C(=O)COC(=O)c2sc(C)nc2C)s1,-3,4
COc1ccccc1OCC1CN(C(=O)C2CCC(N(Cc3ccc(F)cc3)C(=O)OC(C)(C)C)CC2)CCO1 (stereo not given),11,6

Random excerpt: two entries already listed
SMILES,NPYLR7 agonist,NPYLR7 agonist max-min
CC(=O)Nc1ccc(OC(C)C(=O)Nc2cccc(C(C)=O)c2)cc1 (stereo not given),3,-2
CCOC(=O)C1CCc2sc(NC(=O)C3CCCN(Cc4nc(-c5cccnc5)no4)C3)nc21 (stereo not given),-1,-3

Remaining list, next part
SMILES,NPYLR7 agonist,NPYLR7 agonist max-min
CCNC(=O)N1CCN(C(C(=O)NC(C)CCc2ccccc2)C2CCCC2)CC1 (stereo not given),-3,0
CCOC(=O)c1cc(-c2cccc(NC(=O)[C@@H]3C[C@H]3c3ccccc3)c2)n(-c2ccc(OC)cc2)n1,-2,-3
CCOc1ccccc1NC(=O)N(CCOC)Cc1ccc(OS(=O)(=O)c2ccc(F)cc2)cc1,-3,-11
CCCCc1ccc(C(=O)N(CC(=O)N(CCc2c[nH]c3ccccc23)Cc2ccc(C(F)(F)F)cc2)C(C)C)cc1,24,19
Cc1ccc2c(c1)[C@@H]1[C@H](CO2)CN(C)C(=O)CCN1C(=O)c1ccno1,-10,0
Clc1ccc(Cn2cccc2C2=NCCO2)cc1,-3,-5
Cc1c(CO)cccc1NC(=O)c1ccc(N2CCCC2c2ccncc2)nc1 (stereo not given),-2,-2
CC(=O)Cn1c(=O)c2c(nc3n(Cc4ccccc4)c(C)cn23)n(C)c1=O,-1,8
COc1ccccc1CC(C)(C)NC(=O)CNS(C)(=O)=O,0,26
CC(C1CC1)N(CCC#N)Cc1ccc(NS(C)(=O)=O)cc1 (stereo not given),0,-1
Cc1nn(-c2ccccc2)c(Oc2ccccc2)c1CN(Cc1ccco1)CC(O)Cc1ccccc1 (stereo not given),-3,-2
CCOP(=O)(CNC(=O)C(C)c1cccc(C(=O)c2ccccc2)c1)OCC (stereo not given),-8,-14
O=C(C[C@@H]1CCNC[C@@H]1Cc1cc(CN2CCN(c3ccccc3)CC2)on1)Nc1cccc(O)c1,-8,-17
O=C(c1ccc[nH]1)N1CCCC(N2CCN(c3ccccc3F)CC2)C1 (stereo not given),0,-5
Cc1cc(C)n(-c2ccc(CCNC(=O)c3ccc[nH]c3=O)cc2)n1,6,3
CCC(=O)NCC(=O)Nc1ccnn1Cc1ccc(Cl)c(F)c1,-5,-7
CN1C(=O)/C(=C2/C(=O)N(Cc3ccccc3F)c3ccccc32)SC1=S,-18,-21
CCn1nccc1NC(=O)c1ccc2sc([C@@H]3O[C@H](CO)[C@H](O)[C@H](O)[C@H]3O)nc2c1,10,5
Cc1ccc(C(=O)Nc2ccc(N3CCC(NCC4CCOCC4)CC3)cc2)c(C)c1,8,5
O=P1(Nc2ccc(F)cc2)C=C(c2ccccc2)OC(c2ccccc2)=C1,-6&3,-7&-1
COc1ccccc1C(=O)Nc1ccc2c(c1)NC(=O)CC2c1ncc[nH]1 (stereo not given),17,4
CCOc1nc(-c2ccco2)n(-c2ccc(NC(=O)c3ccc4c(c3)OCO4)cc2)n1,25,34
COc1ccc(NC(=O)C2CCCCN2C(=O)c2cccs2)cc1S(=O)(=O)N1CCCCC1 (stereo not given),0,5
COc1cccc(C(=O)N(Cc2nccn2Cc2ccc(C(F)(F)F)cc2)C(C)C)c1,5,8
CSc1sc2c(O)cc(=O)[nH]c2c1C(N)=O,17,16
Oc1oc(-c2ccc(Cl)cc2)nc1C=Nc1nccs1,9,7
CCNCCC1CCC(=O)N1CC1C2CC3CC(C2)CC1C3 (stereo not given),18&23,14&8
NC(=O)c1cc2cc(Br)ccc2oc1=NCc1ccccc1,5,4
CC(C)N(C)c1ccc(NC(=O)c2ccc3c(c2)CCO3)cc1F,5&-2,2&-2
COc1ccccc1N1CCN(CC(=O)c2c[nH]c3ccccc23)CC1,8,0
Cc1[nH]c(=O)c(C#N)c(C)c1CCC(=O)NC1(C)CCS(=O)(=O)C1 (stereo not given),8,12
COCCNC(=O)c1sc(=O)n(Cc2ccccc2C)c1C,-10,-7
C=CCC(CC=C)C(=O)NC1CCCC(SC)C1 (stereo not given),-2,-8
CCN1CCN(C(=O)c2cccc(NCc3ccc(C)s3)c2)CC1,16,9
CCOC(=O)[C@@H]1[C@@H](O)C(=O)N(Cc2ccccc2)C12CCN(S(=O)(=O)c1ccccc1)CC2,38,51
OC(CN1CCN(Cc2ccc(Cl)s2)CC1)c1ccc(F)cc1F (stereo not given),-3,-5
CCCc1c(C(=O)N2CCCCC2)cnn1-c1ccc(F)cc1,-5,-4
CCNC(=O)C1CCN(c2nc(C)cc(C3CCC3)n2)C1 (stereo not given),17,9
O=C(/C=C/c1ccc2c(c1)OCO2)Nc1cccc(Oc2ccccc2)c1,-4,-7
Cc1ccc(C(=O)CSc2nccn(-c3ccc(Br)cc3)c2=O)c(C)c1,-9,-16
O=S(=O)(NCCNc1nc(-c2cccs2)nc2ccccc12)c1cccc(C(F)(F)F)c1,3,13
O=C(NCC1CCCN(Cc2cccc(OC3CCCC3)c2)C1)c1cccs1 (stereo not given),5,-2
CCC(C)NC(=O)CCc1ccc2c(c1)CCO2 (stereo not given),3,0
CC(=O)Nc1ccc(N2C(=O)C(C)Oc3ccc(C)cc32)cc1 (stereo not given),7,3
O=C(CCNC(=O)NC1C=CCCC1)Nc1ccccc1 (stereo not given),8,4
Cc1ccc(-n2c(C)cn3c4c(=O)n(CCN5CCCCC5)c(=O)n(C)c4nc23)c(C)c1,-1,6
CC(C)CNC(=O)C1(C)CCCN1C(=O)COc1ccc(C(C)(C)C)cc1 (stereo not given),6,3
CCc1cccc(C)c1NC(=O)c1cc(-c2ccc(C)o2)nc2ccccc12,-3,-7
CN1C(=O)CC(N2CCC(C(N)=O)CC2)C1=O (stereo not given),4,0
CCCCCCCCCCCCCCCC(=O)NCC(COP(=O)(O)OCC[N+](C)(C)C)OCC (stereo not given),-6,5

(further entries)
SMILES,NPYLR7 agonist,NPYLR7 agonist max-min
O=S(=O)(c1ccc(C2=CSC3=NCCCN23)cc1)N1CCOCC1,3,4
C#Cc1cccc(NC(=O)CN2C(=O)c3ccccc3C2=O)c1,3,11
CC(=O)N1CCCC(OCc2cccc(F)c2F)C1 (stereo not given),-2,1
O=C1NCC2(CCCN(C(=O)CCCCc3ccccc3)CC2)O1 (stereo not given),-2,-4
CC(C)Cc1noc(COC(=O)c2cccc(S(=O)(=O)N3CCN(c4ccccc4)CC3)c2)n1,1,-1
CC(C)C(=O)Nc1ccc(SCCN2CCOCC2)nn1,1,1
CNC(=O)C1CN(CCOc2cccc(C)c2)c2ccccc2O1 (stereo not given),1,2
CCOC(=O)C1C(=O)C=C(c2ccco2)CC1c1cccc(OC)c1OC (stereo not given),6,8
CCCNC(=O)N(CCOC)Cc1nccn1Cc1cc(C)ccc1C,15,12
COc1ccccc1-c1nc2cc(C)ccn2c1NC(=O)C12CC3CC(CC(C3)C1)C2,-14,-14
COc1ccc(-n2c(C)c(C)c(C#N)c2NC(=O)CN2CCCCC2)cc1,3,2
O=C(NCc1nc2ccccc2s1)C1CC(=O)N(C2CCCC2)C1 (stereo not given),0,1
Cc1ccc(NC(=O)c2cc(S(=O)(=O)Nc3ccc(F)cc3)ccc2Cl)cc1,-14,-20
N#CC1(Nc2ccc(Cl)cc2)CCCCC1,11,16
Cc1ccccc1NS(=O)(=O)CC12CCC(CC1=O)C2(C)C (stereo not given),-22,-24
CN(C(=O)Cn1cccn1)C(Cc1ccccc1)C1CCN(C(=O)c2cnn(-c3ccccc3)c2)CC1 (stereo not given),0,3
CC1C=C2C(C#N)C(=N)C(C#N)(C#N)C(c3ccc(F)cc3)C2(C)CN1C (stereo not given),16,7
NCCSc1ccc(Br)cc1,7,3
CSc1ccc(NC(=O)NCc2cc(C)on2)cc1Cl,9,6
O=C1CCc2cc(OCCn3ccc(-c4ccc(F)cc4)n3)ccc2N1,10,9

Seven entries out of the list, ordered by length of the SMILES, largest number first:
SMILES,NPYLR7 agonist,NPYLR7 agonist max-min
CN(C(=O)Cn1cccn1)C(Cc1ccccc1)C1CCN(C(=O)c2cnn(-c3ccccc3)c2)CC1 (stereo not given),0,3
CC1C=C2C(C#N)C(=N)C(C#N)(C#N)C(c3ccc(F)cc3)C2(C)CN1C (stereo not given),16,7
Cc1ccc(NC(=O)c2cc(S(=O)(=O)Nc3ccc(F)cc3)ccc2Cl)cc1,-14,-20
COc1ccc(-n2c(C)c(C)c(C#N)c2NC(=O)CN2CCCCC2)cc1,3,2
O=C(NCc1nc2ccccc2s1)C1CC(=O)N(C2CCCC2)C1 (stereo not given),0,1
Cc1ccccc1NS(=O)(=O)CC12CCC(CC1=O)C2(C)C (stereo not given),-22,-24
CSc1ccc(NC(=O)NCc2cc(C)on2)cc1Cl,9,6

(continued)
SMILES,NPYLR7 agonist,NPYLR7 agonist max-min
C=CCNC(=O)C(NC(=O)c1cccs1)C1CCN(C(=O)Nc2ccc(C)cc2)CC1 (stereo not given),1,6
O=C(COc1ccc(Br)cc1F)c1ccc2c(c1)CCO2,2,-2
COc1ccc(C(=O)Oc2cccc(-c3nc4c(C)cccn4c3NC(C)(C)CC(C)(C)C)c2)cc1,0,5
CC1CCCCN1C(=O)NCc1cccnc1Oc1cccc(F)c1 (stereo not given),2,1
Clc1ccc(-c2nc(-c3ccccn3)no2)cc1,0,-3
C=c1ccccc1=C1NN=C(CN2CCCC3CCCC32)O1 (stereo not given),1,0
Cc1ccc(C(C)CCNC(C)CCCC(C)(C)O)o1 (stereo not given),2,1
CC(C)C(=O)Nc1ccc(N(C)C)c(CN(C(=O)c2ccc(F)cc2)C2CC2)c1,2,4
CC(C)Nc1ncccn1,-2,-5
Cn1c(=O)c2c(=S)nc(C(C)(C)C)[nH]c2n(C)c1=O,18,18
COCCCn1cc(C(=O)N2CCN(C(=O)C(C)C)CC2)c2nn(-c3ccccc3)c(=O)c-2c1,5,5
Cc1ccc(C)c(COc2cccn3c(CCNC(=O)COCc4ccccc4)cnc23)c1,-8,-15
COc1cccc(CN2CCCn3cccc3C2c2ccc(F)cc2)c1O (stereo not given),2,11
Cc1ccc(NC(=O)CC(=O)NCCC2COc3ccccc3O2)cc1 (stereo not given),-2,-9

Source: PubChem BioAssay
